KCNQ2 inh: KCNQ2 channel blockers in CHO-K1 cells – cell-based, FluxOR thallium flux, B-score, primary screen (AID 2156) | B-score at 10 µM | O88943 | hit rate 1.1% among 310,000 | 20 min; stronger effect = lower value; only compounds with negative scores are shown here; some inactives read as strong as hits;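 active = fluorescence ratio B-score at most minus 3 library SDs, with starting brightness B-score within 2 library SDs, cut at about -5.5 in these data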
Target sequence (O88943 whole entry, looked up): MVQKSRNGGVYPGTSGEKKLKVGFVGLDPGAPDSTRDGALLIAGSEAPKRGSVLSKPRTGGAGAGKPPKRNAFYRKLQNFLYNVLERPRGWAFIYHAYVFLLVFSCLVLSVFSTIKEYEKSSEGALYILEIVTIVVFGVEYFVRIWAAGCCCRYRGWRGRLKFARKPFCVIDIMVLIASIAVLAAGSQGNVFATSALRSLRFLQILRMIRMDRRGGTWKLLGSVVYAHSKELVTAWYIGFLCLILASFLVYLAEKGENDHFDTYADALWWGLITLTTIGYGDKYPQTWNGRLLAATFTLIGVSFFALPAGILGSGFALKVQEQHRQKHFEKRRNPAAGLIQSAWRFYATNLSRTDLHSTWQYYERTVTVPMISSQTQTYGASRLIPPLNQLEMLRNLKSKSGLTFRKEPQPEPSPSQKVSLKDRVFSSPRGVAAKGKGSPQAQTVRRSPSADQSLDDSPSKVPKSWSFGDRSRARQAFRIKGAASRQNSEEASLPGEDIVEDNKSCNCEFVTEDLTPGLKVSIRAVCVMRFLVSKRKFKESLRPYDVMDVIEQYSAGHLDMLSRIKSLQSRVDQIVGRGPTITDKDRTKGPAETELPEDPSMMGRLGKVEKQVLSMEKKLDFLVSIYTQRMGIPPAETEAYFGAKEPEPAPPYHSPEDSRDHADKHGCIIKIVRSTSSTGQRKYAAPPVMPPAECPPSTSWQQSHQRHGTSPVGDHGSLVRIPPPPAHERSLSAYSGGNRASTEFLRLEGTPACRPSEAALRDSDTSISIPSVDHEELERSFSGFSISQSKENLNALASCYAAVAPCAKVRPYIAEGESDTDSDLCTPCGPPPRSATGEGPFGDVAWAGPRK
KCNQ2 inh baseline: also measured in KCNQ2 inh; calls as there; B-score; measured here: initial fluorescence intensity artifact check;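 brightness before thallium and not channel activity; 0 = typical well and far values either way flag optical interference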
The depositor's hits bear a star; i = inactive. The list is partial. The share of hits here may be higher or lower than overall.

SMILES	KCNQ2 inh	KCNQ2 inh baseline
Cc1cccc(Oc2ncc(-c3ccc(Cl)cc3)cn2)c1	i	-0.01
CC(=O)N1CC(=O)N=C1SCC(=O)Nc1nc(C)c(-c2ccccc2)s1	i	0.35
O=C(NCc1ccccc1Cl)C1CCC(=O)N1Cc1ccc(F)cc1 (stereo unspecified)	i	0.13
CC(C)(C)NC(=O)CSc1nc(N)c(NC(=O)c2ccccc2F)c(=O)[nH]1	i	-1.23
O=[N+]([O-])c1ccc(C2=CSC3=NCCN23)cc1	i	-0.89
COc1cc(CN2CCN(Cc3ccc4cc(F)ccc4n3)CC2CCO)cc(OC)c1 (stereo unspecified)	i	-0.04
CCOC(=O)c1cnc(-n2nc(C)cc2C)[nH]c1=O	i	0.12
Cc1ccc(N(C)S(=O)(=O)c2ccc3c(c2)CC(C)N3C(=O)C2CC2)cc1 (stereo unspecified)	i	-2.14
Cc1cc(C(F)F)n2nc(C(=O)Nc3c(F)cc(F)cc3Br)nc2n1	i	1.43
COCCSc1ccccc1C(=O)N1CCC(Cc2ccccc2)CC1	i	-1.3
OCCCCNCc1cc(Br)ccc1OCc1ccccc1F	i	0.02
CCOC(=O)c1ccc(NC(=S)N(CCCN2CCCCC2)Cc2ccco2)cc1	i	-0.46
CCc1nc(NC2CCCCC2)c(C#N)c2c1COC(C)(C)C2	i	-0.68
COc1ccc2oc(C(=O)Nc3ccccn3)c(C)c2c1	i	0.83
Cc1cccc(-n2ncc(C#N)c2-n2cccc2)c1	i	-0.37
CC(C)(C)c1ccc(/C=N/OCC(=O)NCc2ccccc2)cc1	i	-0.3
O=[N+]([O-])c1ccccc1S(=O)(=O)N1CCN(C2CCN(Cc3ccccc3)CC2)CC1	i	-0.61
Oc1ccc2cccnc2c1	i	1.65
Cc1c(C)n(Cc2ccc(F)cc2)c2ccc(C(=O)NCCCN3CCOCC3)cc12	i	0.28
COc1ccc(C)cc1NC(=O)c1nnn(Cc2cccc(C(F)(F)F)c2)c1N	i	0.47
Cc1ccc(OCCCn2ccnc2)c(Br)c1	i	1.26
CCOC(=O)c1ccc(NC(=O)CC2OCCN(CC)C2=O)cc1 (stereo unspecified)	i	-0.49
CSc1nc(SCC(N)=O)c2c3c(sc2n1)CN(C)CC3	i	-0.68
OCc1ccc(-c2nn(Cc3ccccc3)c3ccccc23)o1	i	-0.87
CC(C)N1CSC(=S)N(Cc2ccccc2)C1	i	0.01

(cont.)
SMILES	KCNQ2 inh	KCNQ2 inh baseline
CN(Cc1ccccc1)c1nc(N)c([N+](=O)[O-])c(NCc2ccccc2)n1	i	-1.31
CCC1CCC(c2nnc(-c3ccc([N+](=O)[O-])cc3)o2)CC1 (stereo unspecified)	i	1.37
CCC(=O)NCCNc1nc2cc(C)c(C)cc2cc1C#N	i	-1.95
COc1ccc(NC(=O)CN(c2ccccc2F)S(=O)(=O)c2ccc(C)cc2)cc1	i	1.14
O=C1c2ccccc2C(O)(c2ccccc2)N1CCc1ccccc1 (stereo unspecified)	-8.44*	0.45*
CCOC(=O)C1(Cc2cccc(OC)c2)CCN(C(C)CC(C)(C)O)CC1 (stereo unspecified)	i	0.67
Cc1ccc(OCC(=O)NC2CCS(=O)(=O)C2)c([N+](=O)[O-])n1 (stereo unspecified)	i	-0.68
Cc1ccccc1Nc1nc(N)nc(CSc2nc3ccccc3c(=O)n2C)n1	i	0.01
Cc1ccc(NS(=O)(=O)c2cc([N+](=O)[O-])ccc2N/N=C/c2sc(N3CCOCC3)nc2-c2ccccc2)c(C)c1	i	-0.42
COc1ccc(C(C)=O)cc1COC(=O)CCNS(=O)(=O)c1ccc(C)c(C)c1	i	0.48
CN(C)c1ccc(/C=C/C(=O)c2cccnc2)cc1	i	7.33
Cc1cccc2cc(C#N)c(NCCCn3ccnc3)nc12	i	2.57
NNC(=O)CNC(c1ccccc1)c1cc(Br)ccc1N (stereo unspecified)	i	1.66
COc1ccc(S(=O)(=O)O/N=C2\CCCc3ccccc32)cc1	i	0.29
Cc1ccc(/C=C2/SC(=S)N(CCCC(=O)Nc3cc([N+](=O)[O-])ccc3O)C2=O)cc1	i	-1.38
CCCc1cc(C(=O)Nc2ccc(C(=O)c3ccccc3)cc2)n(C)n1	i	0.03
O=C(c1ccc(NS(=O)(=O)c2cccc3cccnc23)cc1)N1CCCCC1	i	-0.99
O=[N+]([O-])c1cccc(S(=O)(=O)Nc2ccc(-c3ccc(N4CCOCC4)nn3)cc2)c1	i	0.14
Cc1ccc(S(=O)(=O)NC(=NC(C)C)c2ccccc2)cc1	i	-0.16
COc1ccccc1CNC(=O)CNC(=O)[C@@H]1Cc2ccccc2CN1	i	-0.17
CCCNC(=O)NC(=O)COC(=O)c1ccc(OC)c(S(=O)(=O)N2CCCc3ccccc32)c1	i	-0.84
Oc1ccc(Br)cc1-c1cc(-c2ccccc2F)[nH]n1	i	1.74
Cc1ccccc1NC(=O)COC(=O)c1ccc(CSc2ccc(Cl)cc2)cc1	i	2.39
COc1cccc(NC(=O)CN2CCN(S(=O)(=O)c3ccc(F)cc3)CC2)c1	i	1.11
C=Cc1ccc(CSc2cc(C)nc3nc(C)nn23)cc1	i	-1.23

The list continues.
SMILES	KCNQ2 inh	KCNQ2 inh baseline
O=C(CC1SCCNC1=O)Nc1ccc(Cl)c(Cl)c1 (stereo unspecified)	i	0.67
COc1ccc(CCNC(=O)c2cn3ccc(C)cc3n2)cc1OC	i	-0.93
CCOC(=O)c1ccc(NC(=O)C2CCCN(S(=O)(=O)c3ccc(F)cc3)C2)cc1 (stereo unspecified)	i	1.3
COC(=O)c1ccc(Nc2nc3ccc(C)cc3n3cnnc23)cc1	i	0.23
CCCn1c(N)c(N(CCOC)C(=O)c2ccc([N+](=O)[O-])cc2Cl)c(=O)[nH]c1=O	i	0.19
CCn1c(NCc2cccc(OC)c2OC)nc2ccccc21	-6.09*	-0.41*
CCOC(=O)N/N=C/c1cn(Cc2ccc(F)cc2)c2ccccc12	i	-0.1
O=C(NC1CCCCCC1)c1c2c(nc3ccccc13)CCN(Cc1ccccc1)C2	i	-0.9
CCOc1c2ccc(C(=O)NCc3cc(C(F)(F)F)cc(C(F)(F)F)c3)cc2nn1CCOC	i	1.18
O=C(CCc1nc2ccccc2[nH]c1=O)OCc1ccc(S(=O)(=O)N2CCOCC2)cc1	i	-0.83
CC1CN(C(=O)Nc2ccc3snnc3c2)c2ccccc21 (stereo unspecified)	i	0.12
O=c1[nH]c2ccccc2cc1-c1nnn(-c2ccc(Cl)c(Cl)c2)n1	i	1.09
COc1ccc(Cl)cc1Nc1nc(C)nc2c1oc1ccccc12	i	-0.63
O=C(Nc1ccccc1)OC1C2CCC1C(N1CCCCC1)CC2 (stereo unspecified)	i	-0.01
O=C(NCc1ccco1)c1ccc(Cl)nc1	i	0.23
O=C(NCc1cccnc1)/C(=C\c1ccc(-c2ccc(Br)cc2)o1)S(=O)(=O)c1ccccc1	i	0.03
Cc1ccc2c(c1)C(c1ccc([N+](=O)[O-])cc1)=NNC(c1ccc(Br)cc1)=N2	i	-1.16
CC(C)CCn1c(CN2CCN(c3cccc(Cl)c3)CC2)nc2c1c(=O)n(C)c(=O)n2C	i	-1.96
CC(=O)c1cccc(NS(=O)(=O)N(C)C)c1	i	1.47
O=C(NC1CCCCC1)Sc1ccc(Cl)cc1	i	1.78
N#CC(c1ccc(O)cc1)N1CCCCC1 (stereo unspecified)	i	-1.01
Cc1nnc(SCC(=O)N2c3ccccc3Sc3ccccc32)n1N	i	-0.3
Cc1ccc(C2C=C(c3ccccc3OC(F)F)Nc3ncnn32)cc1 (stereo unspecified)	i	-0.12
O=C1N=c2ccccc2=C1c1c(O)[nH]c2c(C(F)(F)F)cccc12	i	-1.61
COc1cc(OC)c(C(=O)Nc2cccc(C(C)=O)c2)cc1OC	i	-0.44

Following part:
SMILES	KCNQ2 inh	KCNQ2 inh baseline
COc1cc(C(=O)N(Cc2cccnc2)Cc2cc3cc4c(cc3[nH]c2=O)OCCO4)cc(OC)c1OC	i	-0.29
CSc1ccc(/C=N/Nc2ccc(Cl)c(C(=O)O)c2)cc1	i	-2.42
CC(=O)OCC1OC(n2ncc(=O)n(Cc3ccccc3)c2=O)C(OC(C)=O)C1OC(C)=O (stereo unspecified)	i	0.02
CC(=O)c1c(C)[nH]c(C(=O)NCCc2c[nH]c3ccccc23)c1C	i	-0.1
CN(C(=O)c1cc([N+](=O)[O-])ccc1N1CCCC1)C1CCCCC1	i	-0.69
O=C(O)CN1C(=O)NC2(CCc3ccccc32)C1=O (stereo unspecified)	i	3.45
CCOC(=O)c1[nH]c(C)c(C(=O)N2CCN(c3ccc(F)cc3)CC2)c1C	i	0.01
Cc1cnc(C)c(N2CCN(Cc3nc(-c4cccc(F)c4F)oc3C)CC2)n1	i	-0.02
COc1cc(OC)c2cc[nH]c2c1	i	2.09
O=C(COc1ccccc1)N1CCN(c2ccc([N+](=O)[O-])c(N3CCCCC3)c2)CC1	i	0.71
CCC/S(C)=N/S(=O)(=O)c1ccc(C)cc1 (stereo unspecified)	i	-1.74
O=S(=O)(c1ccccc1)c1nc(-c2cccs2)oc1NCC1CCCO1 (stereo unspecified)	i	0.12
Cc1c(C)n(Cc2ccccc2)c2ncnc(NCCCO)c12	i	-0.19
CC(Sc1nnc2ccccn12)C(=O)Nc1ncc(Cl)cc1Cl (stereo unspecified)	i	0.79
Cc1cccc(-c2nc3ccccc3c(=O)n2NC(=S)N(C)C)c1	i	-0.02
O=C(Nc1ccccc1Cl)c1ccc(S(=O)(=O)NCC2CCCO2)cc1 (stereo unspecified)	i	-0.85
Clc1ccc(SCCn2ccnc2)cc1	i	1.09
CCN(C(=O)C1CCN(S(=O)(=O)c2ccc3c(c2)oc(=O)n3C)CC1)c1cccc(C)c1	i	0.89
CN(C)c1cccc(C(=O)OCc2cc(=O)oc3cc(O)ccc23)c1	i	1.32
CC(C)N1C/C(=C/c2ccsc2)C(=O)/C(=C/c2ccsc2)C1	i	-2.05
Cc1ccc(C(=O)OCCN2CCN(c3ncc(C(F)(F)F)cc3Cl)CC2)cc1	i	-0.51
CN(CC(=O)Nc1cccc2c1CCCC2)S(=O)(=O)c1ccc(Cl)cc1	i	-1.1
COc1cc(NC(=S)NNC(=O)C(C)(C)O)cc(OC)c1	i	-2.03
CCCCC(C(=O)OCC)C(N)Cc1ccc(F)cc1 (stereo unspecified)	i	-0.87
CN(C)CCn1c2c(c(SCC(=O)Nc3ccccc3C(F)(F)F)nc1=O)CCCC2	i	-3.5

2 records drawn at random from those above:
SMILES	KCNQ2 inh	KCNQ2 inh baseline
O=C(COc1ccccc1)N1CCN(c2ccc([N+](=O)[O-])c(N3CCCCC3)c2)CC1	i	0.71
Cc1c(C)n(Cc2ccccc2)c2ncnc(NCCCO)c12	i	-0.19

(continued)
SMILES	KCNQ2 inh	KCNQ2 inh baseline
CCOC(=O)C(CC)Sc1nc2c(c(=O)[nH]c(=O)n2C)n1C/C=C(/C)Cl (stereo unspecified)	i	-0.37
CCCC(=O)NC(c1ccccc1OC)c1ccc2cccnc2c1O (stereo unspecified)	i	-0.59
Cc1cc(S(=O)(=O)NCCc2ccccc2)c(C)s1	i	0.06
Cc1ccccc1N(CC(=O)N1CCOCC1)S(C)(=O)=O	i	-1.35
Cc1c(C(=O)Nc2ccc(Cl)cc2)c2ccccn2c1C(=O)c1ccccc1	i	-0.69
CC1(C)CC(=O)C2=C(C1)OC1=C(C2)C(=O)CC(C)(C)C1	-6.03*	0.35*
O=C(NCCOCCOCCNC(=O)c1ccccc1)c1ccccc1	i	0.96
O=C(NCc1ccccc1Cl)c1csc2c1CCCCC2	i	0.96
COc1ccc(-c2cc(=O)oc3cc(OC(C)C(=O)Nc4ccc(CN5CCOCC5)cc4)ccc23)cc1 (stereo unspecified)	i	-1.9
CC1(C)CC2CC(C)(CN2S(=O)(=O)c2cccc(C(=O)OCC(N)=O)c2)C1 (stereo unspecified)	i	1.83
Cn1c(=O)oc2cc(S(=O)(=O)N3CCC(C(=O)NCc4ccccc4)CC3)ccc21	i	-1.44
CCc1nnc(NC(=O)CSc2nnc(-c3ccccc3O)n2-c2ccc(C)cc2)s1	i	-1.12
CCN(CC)c1ccc2nc3c4ccccc4c(=O)cc-3oc2c1	i	-0.12
C/C(=N\NC(=O)c1ccc(N)cc1)C1CC1	i	1.38
COc1ccc(NC(=O)CN2CCN(CC(=O)Nc3ccccc3Cl)CC2)c(OC)c1	i	1.48
Cc1ccc(CNC(=O)c2ccccc2SCC(=O)NCC2CCCCC2)cc1	i	-0.97
COc1ccc(OC)c(NC(=O)CCC(=O)N(Cc2ccc(OC)c(OC)c2)c2nccs2)c1	i	-1.6
Cc1cc(C)cc(NC(=O)C(OC(=O)C2=COCCO2)c2ccccc2)c1 (stereo unspecified)	-6.63*	-0.47*

Structural class, the entries above with a nitro group on carbon
SMILES	KCNQ2 inh	KCNQ2 inh baseline
O=[N+]([O-])c1ccc(C2=CSC3=NCCN23)cc1	i	-0.89
O=[N+]([O-])c1ccccc1S(=O)(=O)N1CCN(C2CCN(Cc3ccccc3)CC2)CC1	i	-0.61
CN(Cc1ccccc1)c1nc(N)c([N+](=O)[O-])c(NCc2ccccc2)n1	i	-1.31
CCC1CCC(c2nnc(-c3ccc([N+](=O)[O-])cc3)o2)CC1 (stereo unspecified)	i	1.37
Cc1ccc(OCC(=O)NC2CCS(=O)(=O)C2)c([N+](=O)[O-])n1 (stereo unspecified)	i	-0.68
Cc1ccc(NS(=O)(=O)c2cc([N+](=O)[O-])ccc2N/N=C/c2sc(N3CCOCC3)nc2-c2ccccc2)c(C)c1	i	-0.42
Cc1ccc(/C=C2/SC(=S)N(CCCC(=O)Nc3cc([N+](=O)[O-])ccc3O)C2=O)cc1	i	-1.38
O=[N+]([O-])c1cccc(S(=O)(=O)Nc2ccc(-c3ccc(N4CCOCC4)nn3)cc2)c1	i	0.14
CCCn1c(N)c(N(CCOC)C(=O)c2ccc([N+](=O)[O-])cc2Cl)c(=O)[nH]c1=O	i	0.19
Cc1ccc2c(c1)C(c1ccc([N+](=O)[O-])cc1)=NNC(c1ccc(Br)cc1)=N2	i	-1.16
CN(C(=O)c1cc([N+](=O)[O-])ccc1N1CCCC1)C1CCCCC1	i	-0.69
O=C(COc1ccccc1)N1CCN(c2ccc([N+](=O)[O-])c(N3CCCCC3)c2)CC1	i	0.71

Bioassay records as filed in PubChem BioAssay.
